Source: PubChem
HIV TAR-Tat: HIV-1 TAR-Tat binding disruption; HIV-1 TAR RNA, Tat peptide displacement FRET; active compounds read high; AID 1259389; hit rate 0.6% among 100,000; z-score (test concentration not listed);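 also: score is relative to mean and SD of negative controls; some compounds called inactive have numbers as strong as hits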
CDC25B-CDK2 inh: human CDC25B-CDK2/CyclinA binding inhibition; HTRF CDC25B-CDK2/CyclinA binding, anti-His/anti-Flag; active compounds read high; AID 1259370; hit rate 0.72% among 94,000; z-score (concentration not given with the values); P30305+P24941;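 also: score is relative to mean and SD of negative controls; strong numbers were not always called active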
Starred values were filed as active, the others as inactive; / = no result given.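 The calls were made as follows: active = z-score from 3 up in half or more of its runs; inactive = the rest.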

SMILES	HIV TAR-Tat	CDC25B-CDK2 inh
CCNc1nc(NC(C)(C)C)nc(Oc2ccc(=O)n(-c3ccccc3)n2)n1	-0.94	0.17
CN(CCc1ccccn1)Cc1ccc(F)cc1	0.72	-1.7
CCOc1ccc(Nc2ncnc3c2cnn3-c2ccc(F)cc2)cc1	2	/
O=C(Nc1ccc(F)cc1)c1cc2ccccc2o1	0.1	-1.1
OCCNc1nc(Cl)nc(Nc2ccc(Cl)cc2)n1	/	-1.3
COc1cc(OC)c(NS(=O)(=O)c2c(C)nc3sc(C)cn3c2=O)cc1Cl	-0.54	/
CCOC(=O)C1CCCN(c2c(S(=O)(=O)c3ccccc3)cnc3cc4c(cc23)OCCO4)C1 (centres undefined)	-0.32	-0.28
O=c1[nH]c2ccccc2nc1-c1c[nH]c2ccccc12	/	-1.4
CCCCOc1ccc(CN(C)C)cc1CN(C)C	0.68	-1.5
CC(=O)N(CCN(C)C)c1nc2cc3c(cc2s1)OCO3	1.2	/
c1ccc2c(c1)nc(NCCN1CCOCC1)c1nncn12	-1	-1.9
COc1ccc(C2OC(c3ccccc3)C(C)N2C)cc1 (centres undefined)	/	-1.6
CC1CSc2ccc(S(=O)(=O)NC(C)(C)C)cc2NC1=O (centres undefined)	3.1	/
O=C1c2ccncc2C(=O)N1c1ccccc1F	-0.22	/
COc1ccccc1NC1CC(=O)N(c2ccccc2OC)C1=O (centres undefined)	/	-2
Cn1c(=O)c2ccccc2n2c(=S)sc(-c3ccccc3)c12	-0.12	-1.1
Brc1csc(CN2CCc3nc(N4CCCC4)ncc3C2)c1	2.4	/
CC(C)c1ccc(C2C3=C(Nc4c2c(=O)n(C)c(=O)n4C)c2ccccc2C3=O)cc1 (centres undefined)	-6.2	-1.7
CC1=NCCNC(C)=C1N1CCOCC1	/	-0.94
CC(C)C(=O)N1CCC(c2nc3ccccc3s2)CC1	2.5	-2.2
CN(C)CCNc1nc2c(c(=O)n(C)c(=O)n2C)n1CC(O)COc1ccccc1 (centres undefined)	-0.56	-2.3
Cc1nc(N2CCOCC2)c2c(C(=O)Nc3ccc(Br)cc3C)c(C)oc2n1	1.3	/
Cc1cc(-c2ccc(C(C)C)c(S(=O)(=O)N3CC(C)Oc4ccccc43)c2)on1 (centres undefined)	0.95	/
O=C(CCC1=NS(=O)(=O)c2ccccc2N1)Nc1ccc(Cl)cc1	1.5	/
O=C(O)c1nccnc1C(=O)Nc1nccs1	0.64	-1.3
CN(CC(=O)Nc1cccc(Cl)c1)S(=O)(=O)c1ccc2[nH]c(=O)oc2c1	-0.81	/
Cc1csc(NC(=O)NC2CC(=O)N(c3cccc(F)c3)C2)n1 (centres undefined)	-0.33	/
CCOc1ccc(/C(O)=C2\C(=O)C(=O)N(c3nccs3)C2c2cccc(Cl)c2)cc1 (centres undefined)	-3.1	-1.3
O=C(Nc1cc(F)ccc1F)C1CCN(S(=O)(=O)c2cccnc2)CC1	2.5	/
CCOc1ccc(-n2c(N)c(C#N)sc2=S)cc1	2.3	/
CC(CCc1ccccc1)NC(=O)c1ccc(NC2=NC3CS(=O)(=O)CC3S2)cc1 (centres undefined)	1.9	/
O=c1nc(-c2cccs2)n(-c2ccccc2)[nH]1	/	-1.6
CC(=O)Nc1c(N2CCCC2)ccc2nsnc12	-0.57	/
Cc1noc(C)c1Cc1ccc(C(=O)NCc2ccco2)o1	1.4	/
CCOCCCN1C(=O)c2cc3occc3n2CC1(C)C(=O)NC1CCCCC1 (centres undefined)	1.9	/
CCOC(=O)CSC1=C(C#N)C(c2ccc(C)s2)CC(=O)N1 (centres undefined)	0.62	-1.5
Cc1c(C#N)c(O)[nH]c(=O)c1N=Nc1ccc([N+](=O)[O-])cc1	/	-2.9
N[C@@H](CC(=O)O)C(=O)O	/	0.42
COc1ccc(S(=O)(=O)n2nc(C)c(S(=O)(=O)N3CCCCC3)c2C)cc1	-0.84	/
CCOc1ccc(/C=C2\N=C(c3cc([N+](=O)[O-])ccc3Cl)OC2=O)cc1OC	/	-0.83
CCOC(=O)c1c(NC(=O)CSc2nc(N)cc(=O)[nH]2)sc2c1CCC2	/	-2.3
CC(C)Sc1ncc(Cl)c(C(=O)Nc2sc3c(c2C(=O)NCc2ccco2)CCCC3)n1	-0.68	-1.3
O=c1c2[nH]c3ccccc3c2ncn1CCCN1CCCCCC1	/	-1.1
COCCNc1ncnc2onc(-c3cccc(Cl)c3)c12	0.56	-1.4
COc1ccc(Br)cc1CN1CCN(Cc2ccncc2)CC1	1.8	0.46
O=C(Nc1ccno1)Nc1ccc(Cl)cc1Cl	/	-1.1
O=C1Nc2ccccc2S(=O)(=O)N1Cc1ccc(F)cc1Cl	0.1	/
Cc1ccc(S(=O)(=O)NN=C2C3CC4CC(C3)CC2C4)cc1	/	-2.3
CCCCCCc1c(O)nc(SCCN(C)C)[nH]c1=O	0.79	0.48
Cc1cn2c(=O)cc(CSc3ccccc3C(=O)O)nc2s1	0.01	0.28
c1coc(-c2nc3c4c5c(sc4ncn3n2)CCCCC5)c1	3.2	-0.96
Cc1cc2c3c([nH]c2cc1S(=O)(=O)Nc1ccc(S(N)(=O)=O)cc1)CC(C)(C)CC3=O	1.9	/
O=C(c1ccco1)N(Cc1ccccc1F)C1CCS(=O)(=O)C1 (centres undefined)	0.94	-0.46
Cn1c2c(c(=O)n(C)c1=O)C(c1ccc(Cl)cc1)C1=C(CCCC1=O)N2 (centres undefined)	/	-1.1
Cc1nnc2sc(SCC(=O)N(C)c3ccccc3)nn2c1=O	0.65	/
COc1cccc2c1OC1(CCC(C)CC1)N1N=C(c3ccc(C)o3)CC21 (centres undefined)	/	-1.2
COc1ccc(-c2nc(-c3ccc(OC)cc3)c(C)c(C#Cc3ccccc3)c2C)cc1	/	-1
O=C1CCCc2cc(S(=O)(=O)N3CCC(C(=O)N4CCOCC4)CC3)ccc2N1	0.29	/
CN(NC(=O)NC(=O)c1ccc(F)c(Cl)c1)c1ccc(C(F)(F)F)cc1[N+](=O)[O-]	/	-1.6
Cc1ccccc1NC(=O)NC1(C(F)(F)F)Oc2ccccc2O1	/	-1

Record cards, from the list above:
O=C(c1ccco1)N(Cc1ccccc1F)C1CCS(=O)(=O)C1 (centres undefined) in the list: HIV TAR-Tat: 0.94; CDC25B-CDK2 inh: -0.46
Cc1nnc2sc(SCC(=O)N(C)c3ccccc3)nn2c1=O in the list: HIV TAR-Tat: 0.65; CDC25B-CDK2 inh: /

(further entries)
SMILES	HIV TAR-Tat	CDC25B-CDK2 inh
COc1ccc(Cl)cc1N(C)C(=O)Cc1noc2ccccc12	0.19	-1.9
CCOc1ccc(OCC)c(NC(=O)C(C)n2sc3ccccc3c2=O)c1 (centres undefined)	2.3	-1.9
CCn1c(=O)cc(O)c2ccccc21	0.28	/
O=C1C(=C2C(c3cccs3)C(c3ccccc3)=NN2c2ccccc2)C(=O)c2ccccc21 (centres undefined)	/	-0.75
Cc1ccc(Cn2c(=O)c(C#N)cc3c(=O)n4cc(C)ccc4nc32)cc1	-4.8	3.5
COc1cccc(N(CC(=O)Nc2cc(Cl)ccc2OC)C2=NC3CS(=O)(=O)CC3S2)c1 (centres undefined)	0.61	-1.2
CCOC(=O)c1c(NC(=O)c2sc(C)nc2C)sc2c1CCC(C)C2 (centres undefined)	1.2	-1.8
CCC(c1cccs1)N1CNc2c(c(=O)n(C)c(=O)n2C)C1 (centres undefined)	1.3	1.2
Cc1ncc(CO)c2cc(-c3nnc(NCc4ccco4)s3)c(=O)oc12	1.8	/
O=C(Nc1ccccn1)C1CCN(c2ccc(-c3cccs3)nn2)CC1	0.19	/
CCc1nn(CC(=O)NC2CCCc3ccccc32)c(=O)c2cc3sccc3n12 (centres undefined)	0.79	-0.68
c1ccc(CCN2CN=C(Nc3nc4ccccc4o3)NC2)cc1	-2.2	1.7
Cn1c(=O)c2c(SCC(=O)Nc3ccc4c(c3)OCO4)nc(-c3ccccc3)nc2n(C)c1=O	0.63	/
COc1ccc(-c2cnnc(-n3nc(C)c4c3NC(=O)CC4c3ccc(OC)cc3OC)n2)cc1 (centres undefined)	1.8	-1.2
O=C(CCc1nc(-c2ccco2)no1)Nc1cccnc1	0.88	-0.44
Cc1ccccc1Cn1cccc1CNS(=O)(=O)c1c(C)noc1C	0.31	/
O=C(c1cnn2c1NC(c1ccccc1)CC2C(F)(F)F)N1CCCCC1 (centres undefined)	1.7	5
Cc1ccnc2nc(NC(=O)c3cccnc3)nn12	1.1	-1.8
CCCSc1nc(NCCN2CCOCC2)c2c3c(sc2n1)COC(C)(CC)C3 (centres undefined)	-1.7	-0.69
Cc1nn2cnnc2c(C)c1CCC(=O)NCc1ccco1	1	/
CC1CC2(CCCCCC2)Nc2ccc(F)cc21 (centres undefined)	/	-1.9
COc1ccc(Cc2nc3ccccc3n2CC(O)COc2ccccc2)cc1 (centres undefined)	1.1	0.23
COc1ccc(S(=O)(=O)N(C)Cc2nc(-c3ccc(OC)c(OC)c3)no2)cc1	2.1	-0.77
c1csc(C2=Nc3c(ccc4ccccc34)NC(c3ccncc3)=N2)c1	-2	-1.5
O=C(O)c1ccc(C(=O)O)c(OC(F)(F)F)c1	/	-1.1
CCCc1cc(=O)n2nc(N3CCC(C(=O)NCCCOC)CC3)sc2n1	1.5	-1.4
CSc1nc2n(n1)C(c1ccccc1C)C1=C(CC(C)(C)CC1=O)N2 (centres undefined)	-1.7	-1.3
Cc1cc(C)nc(N2CCN(c3ccccn3)CC2)n1	1.3	0.54
COCC(=O)N1c2nc(-c3ccc(Cl)cc3)nn2C2(CCCCC2)[C@@H]2CCCC[C@@H]21	1.3	-0.64
Cc1ccc(S(=O)(=O)NCc2cccn2Cc2ccccc2C)cc1	-0.09	/
COc1ccc(NC(=O)Nc2c(C)nc3nc[nH]n3c2=O)cc1OC	0.96	/
COc1ccc(S(=O)(=O)n2cnc3cc(C)c(C)cc32)cc1	-0.38	-0.29
COC(=O)CC(=O)Nc1cc2c(cc1N1CCOCC1)n(C)c(=O)n2C	2.1	0.75
O=C(NC(=S)Nc1ccc(-c2nc3ccccc3o2)c(O)c1)c1ccccc1[N+](=O)[O-]	/	0.1
O=C(CN1N=NC2C(=O)N(c3ccc(Br)cc3)C(=O)C21)Nc1ccc2c(c1)OCCO2 (centres undefined)	2.5	/
O=c1cc(CSc2ccccc2)nc2sc(-c3cccs3)nn12	-0.07	-0.91
O=C(Cn1c(=O)oc2ccccc21)N1CCCC(CN2CCc3ccccc3C2)C1 (centres undefined)	-0.27	/
Cc1nc2c(ccc3nc(NC(=O)c4ccc(S(=O)(=O)N(C)C)cc4)sc32)s1	/	-1.8
CCc1cc(C)cc(OCC(O)Cn2c(C)[n+](C)c3ccccc32)c1 (centres undefined)	0.6	-0.3
CCc1ccc(NS(=O)(=O)c2ccc3c(c2)oc(=O)n3C)cc1	0.83	0.59

Laid out differently: entries from further up.
SMILES | HIV TAR-Tat | CDC25B-CDK2 inh
CSc1nc2n(n1)C(c1ccccc1C)C1=C(CC(C)(C)CC1=O)N2 (centres undefined) | -1.7 | -1.3
Cc1cc(C)nc(N2CCN(c3ccccn3)CC2)n1 | 1.3 | 0.54
COCC(=O)N1c2nc(-c3ccc(Cl)cc3)nn2C2(CCCCC2)[C@@H]2CCCC[C@@H]21 | 1.3 | -0.64
Cc1ccc(S(=O)(=O)NCc2cccn2Cc2ccccc2C)cc1 | -0.09 | /
COc1ccc(NC(=O)Nc2c(C)nc3nc[nH]n3c2=O)cc1OC | 0.96 | /
COc1ccc(S(=O)(=O)n2cnc3cc(C)c(C)cc32)cc1 | -0.38 | -0.29
COC(=O)CC(=O)Nc1cc2c(cc1N1CCOCC1)n(C)c(=O)n2C | 2.1 | 0.75
O=C(NC(=S)Nc1ccc(-c2nc3ccccc3o2)c(O)c1)c1ccccc1[N+](=O)[O-] | / | 0.1
O=C(CN1N=NC2C(=O)N(c3ccc(Br)cc3)C(=O)C21)Nc1ccc2c(c1)OCCO2 (centres undefined) | 2.5 | /
O=c1cc(CSc2ccccc2)nc2sc(-c3cccs3)nn12 | -0.07 | -0.91
O=C(Cn1c(=O)oc2ccccc21)N1CCCC(CN2CCc3ccccc3C2)C1 (centres undefined) | -0.27 | /
Cc1nc2c(ccc3nc(NC(=O)c4ccc(S(=O)(=O)N(C)C)cc4)sc32)s1 | / | -1.8
CCc1cc(C)cc(OCC(O)Cn2c(C)[n+](C)c3ccccc32)c1 (centres undefined) | 0.6 | -0.3
CCc1ccc(NS(=O)(=O)c2ccc3c(c2)oc(=O)n3C)cc1 | 0.83 | 0.59

Next compounds follow.
SMILES	HIV TAR-Tat	CDC25B-CDK2 inh
CC(Cc1ccco1)NC(=O)C1=Cc2cc(Br)ccc2OC1 (centres undefined)	-0.32	/
Cc1ccc(CNc2nc(NCc3ccc(Cl)cc3)c3cnn(C)c3n2)cc1	0.58	/
O=C(NCc1ccc(Cl)cc1)C(=O)NCC(c1cccs1)S(=O)(=O)c1cccs1 (centres undefined)	1.9	/
CCOC(=O)c1c(C)[nH]c(C)c1S(=O)(=O)Nc1ccc(OC)c(OC)c1	0.14	/
CCN(CCN(C)C)C(=O)Nc1cn(C)c(=O)c2ccccc12	-1.1	/
Cc1cc(F)ccc1NC(=O)C1=Cc2sc3c(c2CS1)CCCC3	-1.3	/
CSc1cccc(NC2c3ccccc3C(=O)N2c2ccc(Cl)cn2)c1 (centres undefined)	0.94	-1.1
CCSc1nnc2c(n1)OC(c1cccc(F)c1)N(C(C)=O)c1ccccc1-2 (centres undefined)	-2.3	-1.9
COc1ccccc1N1CCN(c2ncnc3c2cnn3-c2cccc(Cl)c2)CC1	-0.56	/
O=C(CSc1nc(-c2ccccc2)c(-c2ccccc2)o1)Nc1nccs1	0.68	-3.4
CC(C(=O)O)n1ccc2cc(S(=O)(=O)N3CCCC3)ccc21 (centres undefined)	-1.9	-0.76
CCCN1C(=O)C2(c3ccccc31)c1c(oc3ccccc3c1=O)C(=O)N2CCOC (centres undefined)	0.04	-1.2
CCOc1ccccc1N(C)C(=O)c1cc2c(s1)-c1ccccc1S(=O)(=O)C2	-0.51	-2
CCc1ccc(C2c3c(oc4ccc(C)cc4c3=O)C(=O)N2CCCN2CCOCC2)cc1 (centres undefined)	-0.83	-1.1
CN1c2ccccc2Oc2nnc(N3CCN(c4ccccc4)CC3)cc21	1.4	-1.9
